# YopH inh – YopH (Yersinia) phosphatase inhibition. AID 898. fluorescence Ex485/Em525. inhibition, %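 (about 10 µM by stock and volumes)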. 140,000 compounds, 0.16% hits;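 active = inhibition of 50% or more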;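 note: controls were vehicle for no effect and minimum signal wells for full effect; inactives centre near -20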
# Mtb H37Rv – M. tuberculosis H37Rv growth inhibitors, H37Rv strain (AID 1626); M. tuberculosis H37Rv growth inhibition; higher % means a stronger effect; one-dose inhibition, % at 10 µM; IC50 in µM for titrated hits; 220,000 compounds, 0.95% hits;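 active = confirmed in a dose series; inconclusive = inhibition above 80% but not taken into the dose series; inactive = below 80% or under 30% at every dose of the series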;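 note: bacteria incubated seven days before Alamar blue readout; 0% = bacteria only wells and 100% = bacteria with antibiotic wells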
# Mtb bLac sens – beta-lactam sensitization of Mtb H37Rv. M. tuberculosis H37Rv growth with meropenem, percent inhibition; hits of this screen are not shown here. inhibition, % at 25 µM. 330,000 compounds, 0.27% hits. AID 434955;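 active = about 74% or more and at least 40 points above the plate without the antibiotic, then above 30% in a dose series; inconclusive = first-round hits that could not be retested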;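 note: growth measured after seven days incubation then overnight dye step; 0% = bacteria only wells and 100% = bacteria with antibiotic; twin plates without the antibiotic show which effects depend on it; some results filed as inactive read as strong as hits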
# RecA intein inh – blocks M. tuberculosis RecA intein splicing; AID 2221; P9WHJ3; cell-free RecA intein splicing, fluorescence; inhibition, %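 (about 9 µM by stock and volumes)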; 290,000 compounds, 0.75% hits; in the data active = inhibition above about 30%; inconclusive = no clear call, values can overlap the other calls;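 note: 0% = vehicle wells and 100% = reference inhibitor control wells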
# Target sequence (P9WHJ3 whole entry, looked up): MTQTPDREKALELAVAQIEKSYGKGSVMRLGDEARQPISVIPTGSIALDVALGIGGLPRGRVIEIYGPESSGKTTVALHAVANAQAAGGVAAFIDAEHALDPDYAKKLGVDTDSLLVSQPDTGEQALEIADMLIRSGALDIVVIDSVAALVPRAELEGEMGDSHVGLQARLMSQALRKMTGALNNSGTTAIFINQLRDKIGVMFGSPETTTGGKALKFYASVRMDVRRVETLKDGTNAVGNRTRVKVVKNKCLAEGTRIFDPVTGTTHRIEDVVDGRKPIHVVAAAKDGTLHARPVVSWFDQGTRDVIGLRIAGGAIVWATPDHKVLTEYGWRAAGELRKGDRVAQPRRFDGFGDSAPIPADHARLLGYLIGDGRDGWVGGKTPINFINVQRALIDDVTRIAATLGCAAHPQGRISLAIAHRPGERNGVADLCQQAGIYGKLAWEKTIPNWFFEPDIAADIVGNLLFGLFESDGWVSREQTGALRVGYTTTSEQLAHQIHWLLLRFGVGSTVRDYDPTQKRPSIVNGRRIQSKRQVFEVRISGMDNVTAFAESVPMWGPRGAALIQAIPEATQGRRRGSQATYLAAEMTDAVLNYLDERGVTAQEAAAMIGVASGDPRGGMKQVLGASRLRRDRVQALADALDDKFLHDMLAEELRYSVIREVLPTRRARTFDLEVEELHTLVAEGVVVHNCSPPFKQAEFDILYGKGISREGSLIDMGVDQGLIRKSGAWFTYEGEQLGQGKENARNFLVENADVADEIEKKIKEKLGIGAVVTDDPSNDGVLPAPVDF
# Arbovirus inh – antivirals against arbovirus infection | arbovirus infection cell-based antiviral screen | inhibition, % at 10 µM | 200,000 compounds, 0.37% hits;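 active = inhibition from about 30%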;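 note: bluetongue infection of BSR cells; cell survival read as ATP light after 72 h; 0% = infected wells without compound and 100% = uninfected wells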
# Arbovirus inh repeat – also measured in Arbovirus inh; calls as there; inhibition, %; measured here: 10K subset replicate screen; many hits read low in the repeat;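 first of two repeat runs on a subset; 0% = infected and 100% = uninfected wells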
# * hit, by the source's call; u = inconclusive; x = not tested or not shown; & = joins results of further samples. The list is partial, so the mix of outcomes need not match the whole.
SMILES,YopH inh,Mtb H37Rv,Mtb bLac sens,RecA intein inh,Arbovirus inh,others
N#Cc1nc(COc2ccccc2)oc1N1CCN(c2cccc(Cl)c2)CC1,-26,2%,-4,-2.4,4,
COc1ccc(C)cc1NC(=O)NNC(=O)c1cc2ccccc2cc1O,x,x,-4,-11,x,
Cc1ccc(C(=O)CCC(=O)O)cc1,4,6%,4,x,3,
O=c1[nH]c(-c2ccccc2)c(-c2ccccc2)[nH]1,-19,-6%,4,0.8,-1,
Cc1nn(C)cc1CN1CCCC(C(=O)c2ccc(-c3ccccc3)cc2)C1 (centres undefined),x,8%,3,7.6,-4,
c1ccc(CSc2nnc(-c3sccc3-n3cccc3)o2)cc1,1,3%,2,14,-6,
Cc1ccc(-c2c(=O)n(OCc3ccccn3)c3ccccc3[n+]2[O-])cc1,-20,-6%,x,x,-3,
Cc1ccc(/C=N/NC(=O)c2ccc(-c3ccccc3)cc2)o1,x,x,8,2.7,x,
O=C(Nc1scc(-c2ccccc2)c1C(=O)O)c1ccco1,-22,-5%,-1,4.8,42*,
O=C(Nc1ccccc1N1CCOCC1)C1CCCCN1S(=O)(=O)c1ccccc1 (centres undefined),x,8%,-8,2.1,5,
CCOC(=O)N1CCC(NC(=O)CS(=O)Cc2nc(-c3ccccc3C)oc2C)CC1 (centres undefined),x,x,-5,-48,x,
O=c1oc(Nc2ccccc2F)nc2ccccc12,-20,-4%,-9,-5.5,-2,
O=C(Nc1ccc(F)cc1)c1nc[nH]c1C(=O)Nc1ccccc1[N+](=O)[O-],-15,6%,-1,-0.2,-14,
CCOC(=O)c1c(NC(=O)Cc2cccs2)sc(C(=O)N2CCCCC2)c1C,17,-2%,-12,x,7,
COc1ccc([N+](=O)[O-])cc1NC(=O)COC(=O)c1ccccc1O,x,1%,-5,-0.5,x,
CCC(Sc1nc2sc(C(=O)OC)c(C)c2c(=O)n1N)C(=O)N(CC)CC (centres undefined),-10,-4%,7,-0.4,5,
COc1ccc(CCNc2nc(=O)[nH]nc2C)cc1OC,-3,-3%,-4,x,1,Arbovirus inh repeat=-4
CCCc1nc(SCc2ccc(Cl)cc2Cl)n[nH]1,-26,-8%,6,1.6,5,
CC(C(N)=O)N1C(=O)NC2(CCCc3ccccc32)C1=O (centres undefined),x,x,-3,0.1,x,
CC1CCN(CC(=O)N2CC(=O)Nc3ccccc32)CC1,-23,-7%,-35,1.7,4,
COc1ccc(C)cc1NC(=O)CC(O)(C(F)(F)F)C(F)(F)F,-16,-3%,2,-0.3,2,
CC(C)n1c(Sc2nccn2C)nc2c1c(=O)n(C)c(=O)n2C,-29,1%,-8,0.4,0,
COC(=O)c1ccccc1NC(=O)N1C[C@@H]2C[C@@H](C1)c1cccc(=O)n1C2,x,x,-3,19,x,
CCN(C(=O)CCS(=O)(=O)c1cccc2nonc12)c1ccc(F)cc1,x,x,5,3.8,x,
Cc1cccc(N(C)c2ncnc3onc(-c4ccc(F)cc4)c23)c1C,x,x,1,6.1,x,

# Continued (3 carried over from the part before).
SMILES,YopH inh,Mtb H37Rv,Mtb bLac sens,RecA intein inh,Arbovirus inh,others
COC(=O)c1ccccc1NC(=O)N1C[C@@H]2C[C@@H](C1)c1cccc(=O)n1C2,x,x,-3,19,x,
CCN(C(=O)CCS(=O)(=O)c1cccc2nonc12)c1ccc(F)cc1,x,x,5,3.8,x,
Cc1cccc(N(C)c2ncnc3onc(-c4ccc(F)cc4)c23)c1C,x,x,1,6.1,x,
Cc1ccc(NC(=O)CCc2nnc3ccc(N4CCOCC4)nn23)cc1C,x,x,u,-0.7,x,
CCc1[nH]nc2c1C1(CCOC1C)C(C#N)=C(N)O2 (centres undefined),-3,-3%,0,2.2,3,
CCc1c(C)nc(SCC(=O)N2CCCCC2CC)[nH]c1=O (centres undefined),x,-8%,-4,0.2,x,
COc1ccc(CNC(=O)c2ccc(CS(=O)(=O)c3ccc(Br)cc3)o2)cc1,x,x,u,1.0,x,
O=C(/C=C/c1cccc([N+](=O)[O-])c1)NCCN1C(=O)S/C(=C\c2cccnc2)C1=O,x,2%,-10,0.7,-3,
c1ccc2c(c1)CCN(c1nc(CN3CCOCC3)nc3sc4c(c13)CCCC4)C2,3,30%,99,11,-29,
Cc1ccc(C(=O)C(OC(=O)c2c(C)cc(=O)oc2C)c2ccccc2)cc1 (centres undefined),x,-3%,2,11,1,
CC(C)CCN1C(=O)CC(NNC(=O)c2ccc(S(=O)(=O)N3CCCC3)cc2)C1=O (centres undefined),x,-10%,2,x,x,
O=C(CCN1CCc2ccccc2C(c2ccccc2)C1)c1ccc2c(c1)OCCO2 (centres undefined),-19,2%,82,4.3,-38,
CC(C)OC(=O)c1cc(-c2ccc(C=O)o2)ccc1Cl,-10,9%,5,7.3,-2,
C/C(=C\c1ccccc1)C(=O)Nc1ccc(S(=O)(=O)Nc2ncccn2)cc1,x,-8%,2,-1.6,-3,
C/C(=C1\SC(N2CCOCC2)=NC1=O)c1ccc(C)cc1,-38,16%,32,-5.6,0,
CCS(=O)(=O)NC(C)C(c1cccs1)N1CCN(c2ccc(F)cc2)CC1 (centres undefined),3,-3%,-8,1.4,15,
COC(=O)CCn1nc(-c2ccc(C)cc2)c2ccccc2c1=O,x,6%,55,0.6,4,
Nc1ccn([C@H]2CC[C@@H](CO)O2)c(=O)n1,x,1%&0%&-8%,3,-2.1,3&3,
COC(=O)c1sc2nc3c(c(-c4cccs4)c2c1N)CCCC3,-15,-2%,2,-6.6,-3,
Cc1ccc(-c2nc3ncccc3o2)cc1NC(=O)c1ccc([N+](=O)[O-])o1,x,x,100,23,x,
O=c1c2ccsc2ncn1Cc1cccc(C(F)(F)F)c1,-25,7%,-7,-2.2,-29,
COc1ccc(-c2csc(/C(C#N)=C/Nc3cc4oc5ccccc5c4cc3OC)n2)cc1,x,6%,-1,0.5,-3,
O=C(COC(=O)CSc1ccc([N+](=O)[O-])cc1)NCc1ccco1,x,x,1,1.3,x,
COc1ccc(C(=O)O)cc1S(=O)(=O)Nc1cccc(C(F)(F)F)c1,-34,10%,-11,-2.2,8,
O=C(NC1CCCC1)c1ccc(CNc2c(N3CCOCC3)c(=O)c2=O)cc1,-7,-3%,-1,1.3,1,
CCC(CC)NC(=O)Cn1c(C(C)NC(C)=O)nc2ccccc21 (centres undefined),x,-4%,-4,0.5,x,
CCOC(=O)C1(CCOc2ccccc2)CCN(Cc2ccc(OCCO)cc2)CC1,x,x,-2,-1.2,x,
O=S(=O)(c1ccc(Br)cc1Cl)N1CCN(CCO)CC1,x,0%,2,x,9,

# (list continues)
SMILES,YopH inh,Mtb H37Rv,Mtb bLac sens,RecA intein inh,Arbovirus inh,others
Cc1cc(C)n(CC(=O)N/N=C/c2cccs2)n1,-24,41%,0,-0.1,-5,
Cc1ccn(CCC(=O)N2CCc3ccccc32)n1,x,x,u,3.9,x,
COc1cccc(CNC(=O)CCC2CCCN(C(=O)c3ccoc3)C2)c1 (centres undefined),x,6%,-8,-0.4,1,
O=C(NC1CCCC1)c1cc(-c2ccccc2Cl)on1,x,x,0,-0.6,x,
Cc1ccc(C(=O)NNC(=O)c2ccccc2O)cc1S(=O)(=O)N1CCCCC1,x,x,5,17,x,
O=C(CSc1nc2[nH]ncc2c(=O)n1-c1ccccc1)NCCc1ccccc1,x,6%,2,0.3,0,
Cc1ccc(C)c(NC(=O)C(CC(=O)O)Cc2ccccc2)c1 (centres undefined),x,x,-7,-1.8,x,
COC(=O)c1cc2sc(Cl)cc2n1CC(=O)NCCC(C)C,-19,6%,u,0.2,10,
O=C(O)c1cc(CN2CCOCC2)oc1-c1ccccc1,10,-10%,-10,0.7,-2,
Cc1ccc(C)c(-c2cc(C(=O)N/N=C/c3cccnc3)c3ccccc3n2)c1,x,x,5,7.0,x,
COc1ccc(-n2c(SCC(=O)Nc3ccccc3)nnc2-c2ccc(NS(=O)(=O)c3ccc(C)cc3)cc2)cc1,-18,-10%,6,5.4,-3,
COCCN(CCOC)Cc1c(C)[nH]c2c(C)c(C)ccc2c1=O,-45,-2%,-11,-2.1,4,Arbovirus inh repeat=0
CCN(CC)S(=O)(=O)c1ccc2[nH]cc(C(=O)NC3CC3)c(=O)c2c1,x,x,-5,-1.9,x,
c1ccc(NC2=NCCN2CC2CCCC2)cc1,x,x,-10,-3.6,x,
CN(C)c1ccc(CNC(=O)CCS(=O)(=O)c2ccc3c(c2)n(C)c(=O)c(=O)n3C)cc1,x,x,-1,-2.1,x,
CCN(CC)S(=O)(=O)c1cccc(-c2nnc(SCCCC(=O)c3ccc(F)cc3)o2)c1,-22,-3%,11,3.8,-4,
Cc1ccc(-n2c(COc3cccc(C)c3)n[nH]c2=S)cc1,x,-3%,-1,2.0,6,
CCOC(=O)c1c[nH]c2ccc3ccccc3c2c1=O,x,x,58,-5.5,x,
CCn1c(=O)cc(SCC(=O)Nc2ccc(OC)c(OC)c2)c2ccccc21,-34,-9%,-5,-1.6,-8,
Cc1ccc(/C=N/NC(=O)c2ccccc2OCc2cccc(Br)c2)o1,x,-7%,-2,6.0,-2,
CCn1c(NCc2ccc(OC)cc2)nc2ccccc21,x,x,-1,1.0,x,
O=C(Nc1nc2nc(-c3ccccc3)cc(-c3ccccc3)n2n1)c1ccco1,-23,-3%,-13,3.1,-5,
O=C(CCC(=O)N/N=C/c1c[nH]c2ccccc12)NCc1ccccc1,-23,0%,10,2.4,-4,
CC(=O)N1CCC2(CC1)CC(=O)c1cc(OCC(=O)N3CCCC3)ccc1O2,x,9%,-3,-9.5,4,
O=C(NN1C(=O)c2ccccc2C1=O)c1ccncc1,x,u,99,-0.2,4,

# Further records follow:
SMILES,YopH inh,Mtb H37Rv,Mtb bLac sens,RecA intein inh,Arbovirus inh,others
C/C=C/COc1nc2c(c(=O)n(C)c(=O)n2C)n1C,2,-7%,2,-0.1,7,
CC1CN(c2cc(=O)n(-c3ccc(Cl)cc3)c(=O)[nH]2)CC(C)O1 (centres undefined),x,0%,x,x,-1,
O=c1[nH]c(-c2ccccc2Cl)nc2c1sc(=S)n2-c1ccccc1,x,-1%,x,0.6,16,
CC(=O)OC(C(=O)NC1CCCCC1)c1ccc(Cl)c(Cl)c1 (centres undefined),x,-2%,-7,-0.3,8,
CCC(CO)n1c(SCc2cc(=O)oc3cc(C)ccc23)nc2ccccc2c1=O (centres undefined),9,-5%,9,5.7,-10,
O=C(NC1=NCCS1)c1cccc(NC(=O)c2ccco2)c1,-36,-11%,3,1.4,-1,
Cc1ccc(CNC(=O)CCn2ccc3cc(S(=O)(=O)N4CCCC4)ccc32)cc1,x,x,-5,1.3,x,
CCC(NC(=O)c1cccc(Cn2cc([N+](=O)[O-])cn2)c1)c1ccc(C(C)C)cc1 (centres undefined),-9,4%,-9,1.9,-4,
O=C(CNS(=O)(=O)c1ccccc1)N1CCCC1,x,3%,-7,-4.0,4,
COc1ccc(OC)c(S(=O)(=O)Nc2c(F)cccc2F)c1,24,-1%,7,-3.7,6,
O=C(Cn1cc(C(=O)c2ccccc2F)c2ccccc21)NC1CC1,x,5%,3,x,0,
CCSc1nnc(-c2ccc(S(=O)(=O)NCc3cccs3)cc2)o1,-31,0%,0,-3.7,5,
O=C(Nc1ccc(Cl)c(S(=O)(=O)N2CCOCC2)c1)c1ccc2c(c1)OCCO2,x,7%,5,3.7,3,
CCOc1cc(C=O)cc(N=Nc2cccc([N+](=O)[O-])c2)c1O,x,x,94,-2.9,x,
CCCC(=O)Nc1ccc2nc(SCC(=O)Nc3ccc(N4CCOCC4)c(Cl)c3)sc2c1,-25,41%,4,-2.3,-3,
CCCn1c(CCC(=O)Nc2ccccc2Cc2ccccc2)nc2cc(S(=O)(=O)N3CCOCC3)ccc21,11,-4%,5,1.0,-8,
CCC(C)(C)n1nnnc1C(c1ccc(OC)c(OC)c1)N1CCN(c2ccc(OC)cc2)CC1 (centres undefined),-18,8%,-9,-1.1,9,
CCCCc1cc(C(=O)Cc2ccccn2)c(O)cc1O,x,x,0,-4.6,x,
CC(C)OC(=O)CC12CN3CC(CC(=O)OC(C)C)(CN(C1)C(=O)c1ccccc1C3=O)C2=O,-40,-6%,0,0.1,7,
CS(=O)(=O)Cc1ccc(C(=O)NC(c2ccccc2)c2ccccc2)cc1,x,x,-7,-3.5,x,
CN1C(=O)c2ccc(Oc3ccccc3)cc2C1=O,x,x,-7,1.3,x,

# Fetched by compound from the list above:
SMILES,YopH inh,Mtb H37Rv,Mtb bLac sens,RecA intein inh,Arbovirus inh,others
CCC(CO)n1c(SCc2cc(=O)oc3cc(C)ccc23)nc2ccccc2c1=O (centres undefined),9,-5%,9,5.7,-10,
CCCCc1cc(C(=O)Cc2ccccn2)c(O)cc1O,x,x,0,-4.6,x,
CS(=O)(=O)Cc1ccc(C(=O)NC(c2ccccc2)c2ccccc2)cc1,x,x,-7,-3.5,x,
CCCC(=O)Nc1ccc2nc(SCC(=O)Nc3ccc(N4CCOCC4)c(Cl)c3)sc2c1,-25,41%,4,-2.3,-3,
